# Mtb betalactam: beta-lactam sensitization of Mtb H37Rv; M. tuberculosis H37Rv growth with meropenem, percent inhibition; hits of this screen are not shown here; inhibition, % at 25 µM; 0.27% of 330,000 active; AID 434955;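 active means about 74% or more and at least 40 points above the plate without the antibiotic, then above 30% in a dose series; inconclusive means first-round hits that could not be retested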;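 further: growth measured after seven days incubation then overnight dye step; 0% = bacteria only wells and 100% = bacteria with antibiotic; twin plates without the antibiotic show which effects depend on it; some results filed as inactive read as strong as hits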
# RecA intein inh: inhibitors of M. tuberculosis RecA intein splicing; cell-free RecA intein splicing, fluorescence; AID 2221; P9WHJ3; 0.75% of 290,000 active; inhibition, %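 (about 9 µM by stock and volumes)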; in the data active means inhibition above about 30%; inconclusive means no clear call, values can overlap the other calls;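 further: 0% = vehicle wells and 100% = reference inhibitor control wells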
# Target sequence (P9WHJ3 whole entry, looked up): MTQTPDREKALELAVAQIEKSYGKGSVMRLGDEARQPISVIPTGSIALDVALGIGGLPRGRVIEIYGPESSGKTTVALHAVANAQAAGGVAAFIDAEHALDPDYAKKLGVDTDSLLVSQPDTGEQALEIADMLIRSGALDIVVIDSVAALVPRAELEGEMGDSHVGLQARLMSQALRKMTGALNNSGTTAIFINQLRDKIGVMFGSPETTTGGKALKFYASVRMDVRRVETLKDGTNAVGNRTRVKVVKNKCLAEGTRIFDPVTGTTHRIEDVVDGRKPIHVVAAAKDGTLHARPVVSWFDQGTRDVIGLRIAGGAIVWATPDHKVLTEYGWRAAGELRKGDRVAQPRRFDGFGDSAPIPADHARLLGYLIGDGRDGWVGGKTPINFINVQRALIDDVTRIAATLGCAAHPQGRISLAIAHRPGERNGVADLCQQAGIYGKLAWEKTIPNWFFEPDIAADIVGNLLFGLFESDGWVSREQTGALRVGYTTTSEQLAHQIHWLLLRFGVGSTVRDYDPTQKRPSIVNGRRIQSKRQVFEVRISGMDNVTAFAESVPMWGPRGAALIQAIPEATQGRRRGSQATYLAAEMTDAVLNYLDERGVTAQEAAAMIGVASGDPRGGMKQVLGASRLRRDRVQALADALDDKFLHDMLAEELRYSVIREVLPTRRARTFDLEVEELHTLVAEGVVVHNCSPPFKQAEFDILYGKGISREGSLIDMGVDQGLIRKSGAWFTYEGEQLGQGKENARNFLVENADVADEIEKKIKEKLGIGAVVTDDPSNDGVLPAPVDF
# Mtb growth: M. tuberculosis H37Rv growth inhibitors, H37Rv strain (AID 1626) | M. tuberculosis H37Rv growth inhibition; higher % means a stronger effect | inhibition, % at 10 µM; hits with a dose series show IC50 in µM | 0.95% of 220,000 active;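 active means confirmed in a dose series; inconclusive means inhibition above 80% but not taken into the dose series; inactive means below 80% or under 30% at every dose of the series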;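 further: bacteria incubated seven days before Alamar blue readout; 0% = bacteria only wells and 100% = bacteria with antibiotic wells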
# Arbovirus anti: antivirals against arbovirus infection; arbovirus infection cell-based antiviral screen; inhibition, % at 10 µM; 0.37% of 200,000 active; AID 1251;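 active means inhibition from about 30%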;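 further: bluetongue infection of BSR cells; cell survival read as ATP light after 72 h; 0% = infected wells without compound and 100% = uninfected wells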
# YopH inh: inhibitors of Yersinia enterocolitica YopH tyrosine phosphatase; 0.16% of 140,000 active; fluorescence Ex485/Em525; AID 898; inhibition, %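 (about 10 µM by stock and volumes)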;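 active means inhibition of 50% or more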;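 further: controls were vehicle for no effect and minimum signal wells for full effect; inactives centre near -20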
# An asterisk follows results filed as active; ? = inconclusive; . = no result given. Not all compounds are listed. The share of hits here may be higher or lower than overall.
# Fields: Mtb betalactam	RecA intein inh	Mtb growth	Arbovirus anti	YopH inh
Nc1ccccc1-n1c(=O)n(Cc2ccccc2F)c(=O)c2[nH]cnc21
 : 4	2.9	.	.	.
OC1(c2ccc(OC(F)F)cc2)CSC(=Nc2cccnc2)N1Cc1ccco1 (configuration not stated)
 : .	-2.4	13%	3	.
O=C(Cn1ccc([N+](=O)[O-])n1)N1CCCCCC1
 : 3	0.9	0%	-1	.
CCOC(=O)C1(C(F)(F)F)N=C(C(F)(F)F)Nc2ccc(F)cc21 (configuration not stated)
 : 1	-1.3	-4%	6	-21
CC(C)CN1C(=O)c2ccc(C(=O)Nc3ccccn3)cc2C1=O
 : 5	-1.1	-1%	7	-22
O=C(/C=C/c1cccc([N+](=O)[O-])c1)NCCN1CCOCC1
 : 8	-0.5	-13%	2	-26
Cc1ccc(OCC(=O)Nc2ccc(S(=O)(=O)N3CCOCC3)cc2)c([N+](=O)[O-])n1
 : -10	-0.3	3%	7	.
CCC1=C(OC(=O)N(CC)CC)N2C(=O)OC(=NCC3CC3)[C@]2(C)[C@H]2C1=CC[C@H]1C(=O)N(CC)C(=O)[C@H]12
 : -5	2.0	-4%	.	.
COc1cc(C(=O)OCCCOC(=O)c2cc(OC)c(OC)c(OC)c2)cc(OC)c1OC
 : -10	-0.1	.	.	.
CC(=O)N/N=C(\C)c1cccc(NC(=O)c2cccs2)c1
 : -1	2.6	2%	1	7
CCS(=O)(=O)N1CCN(c2cc3c(cc2[N+](=O)[O-])n(C)c(=O)n3C)CC1
 : 5	1.9	2%	-3	.
COc1cc2c3c(c1OC)C1(C=CC(=O)C=C1)CC3N(C(C)=O)CC2 (configuration not stated)
 : -5	3.9	3%	-9	-39
CCN(CC)S(=O)(=O)c1ccc(C(=O)NCCCn2ccnc2)cc1
 : -3	-1.1	8%	-2	.
O=C(O)/C=C/c1cn(Cc2ccccc2)nc1-c1cccs1
 : 2	-1.2	8%	10	.
Cc1ccc(-c2nc(C(=O)NCCCN3CCOCC3)cc3c2[nH]c2ccccc23)cc1
 : -2	6.1	.	.	.
O=[N+]([O-])c1ccc(-c2cnc(SCc3ccccc3Cl)[nH]2)cc1
 : -10	4.4	12%	-17	-32
CCCCn1c(O)c(N=NC(=O)Cn2c(C(F)(F)F)nc3ccccc32)c2ccccc21
 : 0	0.4	0%	-2	-33
COC(=O)c1sc(N)nc1C(C)(C)C
 : 23	-2.8	-1%	4	-35
CCOc1cc(C(=O)OCC(=O)Nc2ccc(SC(F)F)cc2)cc(OCC)c1OCC
 : 68	-2.4	68%	4	-20
CC1=CN2C(=NC(=O)CC2(C)C(=O)N(CC(=O)NC2CCCC2)Cc2ccc(Cl)cc2)C=C1 (configuration not stated)
 : -4	-0.7	.	.	.
CCOC(=O)c1nnn(-c2nonc2N)c1CN(CC)CC
 : -11	-1.7	-5%	-2	-34
NCCN1CCN(CC(=O)N2c3ccccc3C(=O)Nc3cccnc32)CC1
 : -2	-0.2	-4%	.	.
COc1cc(/C=N/Nc2cccc(C)c2)ccc1OC(=O)c1cccs1
 : 1	.	?	-39	-23
Cc1ncc([N+](=O)[O-])n1CCOc1nonc1N
 : -2	5.8	-5%	2	.
COc1ccc(OC)c(S(=O)(=O)NNC(=S)Nc2ccc3c(c2)OCO3)c1
 : 70	-1.4	.	.	.
Cc1ccc(Cn2ncc3c(N4CCN(CC#N)CC4)ncnc32)cc1
 : 8	0.3	-1%	6	.
COc1cc(OC)cc(C(=O)NC2CCN(C(=O)N3c4ccccc4Sc4ccccc43)CC2)c1
 : 22	10	19%	-31	-31
CCOC(=O)c1ccccc1NC(=O)CSc1nc2ccccc2c(=O)[nH]1
 : -9	0.0	-6%	-10	.
O=C(/C=C/c1ccc(O)cc1)c1ccccc1
 : 90	2.0	12%	.	.
CC(O)CNc1ncnc2nc[nH]c12 (configuration not stated)
 : -7	-0.6	16%	-1	-34

# Ordered by heavy-atom count (ascending): 4 of the compounds above
# Fields: Mtb betalactam	RecA intein inh	Mtb growth	Arbovirus anti	YopH inh
O=C(/C=C/c1ccc(O)cc1)c1ccccc1
 : 90	2.0	12%	.	.
Cc1ncc([N+](=O)[O-])n1CCOc1nonc1N
 : -2	5.8	-5%	2	.
COc1cc(/C=N/Nc2cccc(C)c2)ccc1OC(=O)c1cccs1
 : 1	.	?	-39	-23
NCCN1CCN(CC(=O)N2c3ccccc3C(=O)Nc3cccnc32)CC1
 : -2	-0.2	-4%	.	.

# Additional structures follow:
# Fields: Mtb betalactam	RecA intein inh	Mtb growth	Arbovirus anti	YopH inh
Cc1ccc(C(=O)C2CCN(C(=S)NCCCOC(C)C)CC2)cc1
 : 7	-0.4	.	.	.
COc1ccc(NC(=O)C(OC)c2ccccc2)cc1Cl (configuration not stated)
 : -3	-1.9	5%	-2	-29
CCCC(=Nc1ccc(N)cc1)C1=C(O)C(C(=O)OC)C(C)(C)CC1=O (configuration not stated)
 : 69	-1.7	4%	-14	-14
CC(C)CC(C(=O)NC1CCCC1)N(Cc1cccs1)C(=O)c1snc(C(N)=O)c1N (configuration not stated)
 : 1	-0.3	-5%	-16	7
CC1(C)Cc2c(ccc3ccccc23)C(NNC(=O)c2cccnc2)=N1
 : -11	-2.0	-1%	0	-30
CSc1cccc(NC(=S)N(CCN(C)C)C(C)c2ccncc2)c1 (configuration not stated)
 : -5	1.7	-3%	.	.
O=C(CSc1nccc(=O)[nH]1)c1c[nH]c2ccccc12
 : -5	-1.1	-2%	.	.
CCCCNC(=O)C(=O)N/N=C/c1ccc(C(=O)OC)cc1
 : 0	-1.6	19%	-1	.
COc1ccc(-c2c(C(C)=O)c(C)nc3sc4c(=N)n(N)cnc4c23)cc1
 : 1	1.6	-1%	-15	-20
C=CC[N+](C)(C)CCCNC(=O)/C=N/O
 : 6	2.8	7%	2	-8
CC[n+]1c(/C=C/N(C)c2ccccc2)oc2ccc(F)cc21
 : -2	21	4%	-11	10
O=C(NNC(=O)C1C2C=CC(C2)C1C(=O)O)c1ccccc1O (configuration not stated)
 : 3	-2.3	.	.	.
CC(C)NC(=O)NC(=O)COC(=O)c1ncc(Cl)c(Cl)c1Cl
 : -5	0.6	0%	5	.
COc1ccc(NC(=O)C2CCCN(S(=O)(=O)c3c(C)n[nH]c3C)C2)cc1OC (configuration not stated)
 : -3	-0.2	3%	0	.
Cc1cccc(C(=O)N[C@H](C(=O)Nc2nc3ccc(S(C)(=O)=O)cc3s2)C(C)C)c1
 : -7	-1.2	6%	-3	.
CC(C)n1c(SCC(=O)Nc2nncs2)nnc1-c1ccco1
 : -21	0.0	.	.	.
CC(=O)N(CN1C(=O)CCC1=O)c1ccc(Cl)c(Cl)c1
 : 6	2.4	2%	3	.
CC(=O)Nc1ccc2c(c1)nc1n2CCSC1
 : -9	-3.3	-3%	1	-16
COc1cccc(C(=O)Nc2ccc(F)c(F)c2F)c1
 : -11	-1.9	8%	-2	-10
O=C(CC(O)(c1ccccc1)C(F)(F)F)c1cccs1 (configuration not stated)
 : 2	-0.4	-4%	4	7
C[C@H](NC(=O)OCc1ccccc1)C(=O)NNC(=O)[C@H](Cc1ccccc1)NC(=O)OC(C)(C)C
 : -17	-1.7	-7%	.	.
COC(=O)c1cc(C(=O)c2ccccc2)n2c(=O)/c(=C\N(C)C)sc12
 : -8	-1.9	-13%	.	.
Cc1[nH]nc(SCC(=O)NCc2ccccc2)c1[N+](=O)[O-]
 : 96	-4.7	-3%	3	-3
CCOC(=O)N1CCN(Cc2nc3cc(NC(=O)CC(C)C)ccc3n2C)CC1
 : 2	-0.6	.	.	.
O=C(CSc1nc(O)cc(=O)n1-c1ccccc1)NC1CCCCC1
 : 49	-0.8	3%	-2	-7
CCOc1cc(C)nc(NCCc2ccc(OC)c(OC)c2)n1
 : -1	4.2	3%	6	-7
Cc1ccc(C)c(S(=O)(=O)NCc2ccc(C(=O)N3CC(C)OC(C)C3)cc2)c1 (configuration not stated)
 : 2	-1.3	10%	12	-1
COc1ccc(/C(O)=C2/C(=O)C(=O)N(CCN3CCOCC3)C2c2ccc(C)cc2)cc1 (configuration not stated)
 : -2	-0.6	-6%	7	10
COCCSc1ccccc1C(=O)Nc1ccc(Cl)cc1
 : 18	2.7	-2%	5	.
CC1=N/C(=C\c2ccc([N+](=O)[O-])cc2)C(=O)N1c1ccc(F)cc1F
 : 5	-1.6	.	.	.
COCCN1C=C2C(=O)C(C)(OC(=O)CCc3ccccc3)C(=O)C=C2C=C1c1ccc(C#N)cc1 (configuration not stated)
 : 1	-2.2	2%	.	.
O=C(NC(=S)Nc1cccnc1)c1cc2ccccc2o1
 : -9	-1.2	-3%	-1	-19
CC1CCCC2(C1)NC(=S)c1c(sc3c1CCCC3)N2 (configuration not stated)
 : -4	4.3	-1%	-10	4
CCOc1ccc(C(=O)NCc2cccnc2)cc1
 : -2	-2.5	-7%	0	-23
CCOC(=O)C1CN(S(=O)(=O)c2ccc(C)cc2)C1
 : -6	-0.1	-13%	14	-41
O=[N+]([O-])c1ccc2c3n([n+]([O-])c2c1)CCN=C3c1ccc(Cl)cc1
 : 67	5.0	.	.	.
CCCn1c(N)c(C(=O)CN2CCN(S(=O)(=O)c3cccs3)CC2)c(=O)[nH]c1=O
 : -19	0.0	-2%	5	0
O=C(Nc1ccccc1[N+](=O)[O-])C1(c2ccccc2)CCOCC1
 : -11	0.2	-11%	-8	.
Cc1ccc(Cn2c(C)nc3c(c2=O)c2nc4ccccc4nc2n3Cc2ccco2)cc1
 : 96	13	.	-11	-2
CCOCc1[nH]c(=S)[nH]c(=O)c1Cc1ccc(OCC(C)C)cc1
 : 0	.	-3%	-12	.
NC(=O)CCC(NS(=O)(=O)c1ccc(Cl)cc1)C(=O)NCc1ccccc1 (configuration not stated)
 : -2	-1.3	0%	0	-23
O=C(Cn1ncn2c(cc3ccccc32)c1=O)NCCCc1ccccc1
 : -3	0.5	.	.	.
O=C(c1cccc(Cl)c1)N1CCN(C(=O)c2ccco2)CC1
 : -9	18	-7%	0	-34
O=C(CNc1cccc([N+](=O)[O-])c1)N/N=C/c1ccc([N+](=O)[O-])o1
 : 100	-3.5	18%	-14	.
O/N=C(\c1ccccc1)C(O)c1ccccc1 (configuration not stated)
 : -5	-1.2	.	.	.

# Reprinted at random: four records from the list
# Fields: Mtb betalactam	RecA intein inh	Mtb growth	Arbovirus anti	YopH inh
CCOC(=O)C1(C(F)(F)F)N=C(C(F)(F)F)Nc2ccc(F)cc21 (configuration not stated)
 : 1	-1.3	-4%	6	-21
O=C(/C=C/c1cccc([N+](=O)[O-])c1)NCCN1CCOCC1
 : 8	-0.5	-13%	2	-26
O=C(Nc1ccccc1[N+](=O)[O-])C1(c2ccccc2)CCOCC1
 : -11	0.2	-11%	-8	.
CC(C)CN1C(=O)c2ccc(C(=O)Nc3ccccn3)cc2C1=O
 : 5	-1.1	-1%	7	-22

# Further entries follow.
# Fields: Mtb betalactam	RecA intein inh	Mtb growth	Arbovirus anti	YopH inh
O=C(COC(=O)c1ccccn1)c1ccc([N+](=O)[O-])cc1
 : -10	-7.9	.	.	.
Cc1ccc(/C=C/C(=O)N2CCN(Cc3ccccc3)CC2)o1
 : -1	-2.2	38%	-5	-19
CC1CN(C(=O)CSc2nnc(CNC(=O)c3ccc(S(=O)(=O)N(C)C)cc3)o2)CC(C)O1 (configuration not stated)
 : -7	0.1	.	.	.
Cc1cc(Cl)c2oc(C(=O)N(C)Cc3cc(C)[nH]n3)c(C)c2c1
 : -10	3.3	.	.	.
CCOC(=O)C1=C(c2ccc(OC)cc2)OC(N)=C(C#N)C1c1cccnc1 (configuration not stated)
 : 0	.	0%	.	.
CC(C)C(=O)NNc1ccc(C(F)(F)F)cn1
 : -7	-2.5	-13%	.	.
Cc1nnc(SCC(=O)N2CCCCC2)n1CC1CCCO1 (configuration not stated)
 : -9	-2.3	-2%	-5	-17
CN(C)CC(C)(C)CNC(=O)C1CCN(Cc2ccccc2O)CC1
 : -14	0.2	-3%	20	1
Cc1c(NC(=O)/C=C/c2cn(-c3ccccc3)nc2-c2ccccc2)c(=O)n(-c2ccccc2)n1C
 : 57	1.7	3%	-21	-36
Cc1ccccc1-c1nc(CN2CCCC(C(=O)NCCCN3CCOCC3)C2)c(C)o1 (configuration not stated)
 : -4	-0.2	.	-2	-16
COc1cc2c(cc1OC)[C@@H]1C(=O)c3ccc4c(c3O[C@@H]1CO2)C[C@H](C(C)C)O4
 : -14	-0.1	7%	.	.
O=C1c2ccccc2C(=O)N1Cc1cnc(N2CCN(c3ccccc3)CC2)s1
 : 0	-1.8	4%	-8	.
O=C(NCCn1cc(SCc2ccccc2)c2ccccc21)c1c(F)cccc1F
 : 1	1.1	-2%	1	-40
CC(C)=CCC12CN3CCN(CC(C3)C1=O)C2
 : 0	-0.9	-1%	10	34
